Compound activity as filed in PubChem BioAssay.
APJ agonist = agonists of human apelin receptor APJ, primary screen, CHO-K1 cells, PathHunter beta-arrestin, luminescence; activation, % at 20 µM; 0% DMSO wells, 100% apelin; 330,000 compounds, 0.11% hits;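 active = activation more than six SD over the plate average, tested at 20 µM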;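 also: 0% = DMSO alone and 100% = apelin-13 at 10 nM; some results filed as inactive read as strong as hits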
Target sequence (P35414 whole entry, looked up): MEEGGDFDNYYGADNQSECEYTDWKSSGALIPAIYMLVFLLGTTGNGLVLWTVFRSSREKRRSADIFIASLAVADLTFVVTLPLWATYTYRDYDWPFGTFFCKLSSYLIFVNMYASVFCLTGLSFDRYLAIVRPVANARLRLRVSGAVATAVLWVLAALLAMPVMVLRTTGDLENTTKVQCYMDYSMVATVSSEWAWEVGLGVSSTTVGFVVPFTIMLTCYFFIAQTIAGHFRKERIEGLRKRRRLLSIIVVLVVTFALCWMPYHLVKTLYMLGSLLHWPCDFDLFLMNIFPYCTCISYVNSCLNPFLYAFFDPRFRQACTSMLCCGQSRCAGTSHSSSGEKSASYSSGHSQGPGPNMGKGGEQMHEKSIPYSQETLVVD
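Test system: CHO-K1 APJ beta-arrestin complementation cell line | Compound: Single test compound dose, 20 µM final, 1% DMSO | Incubation: Compound 90 min 25 °C, reagent 1 h | Measured by: beta-gal luminescence | Read-out basis: APJ–arrestin association signal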
APJ antagonist = antagonists of human apelin receptor APJ, primary screen, CHO-K1 cells, beta-arrestin complementation, luminescence. P35414. inhibition, % at 20 µM. 330,000 compounds, 0.32% hits;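 active = inhibition above about 40% at 20 µM, limit read from the data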;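 also: cells challenged with 10 nM apelin-13 agonist together with compound; plate controls were apelin-13 plus DMSO wells for no effect and DMSO wells lacking apelin-13 for full effect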
CHOP UPR activ = activators of apoptotic CHOP UPR arm, primary screen, cell-based, CHO-CHOP luciferase reporter, luminescence, uHTS. UPR activation; percent of tunicamycin response over DMSO baseline. activation, % at 10 µM. 330,000 compounds, 0.34% hits. AID 449763, 2010;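 active = at 10 µM dose, activation of 40% or more, normalized to positive control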;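 also: 100% = tunicamycin at 10 µg/mL and 0% = DMSO alone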
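Evaluation: % reporter activation, DMSO baseline versus tunicamycin full activation; System: CHO-CHOP luciferase reporter cell line; Input: 500 cells/well; Incubation: 6 h compound treatment, 37 °C; Measured by: Steady-Glo luciferase luminescence; Dosing: one dose, 10 µM in 0.5% DMSO; Buffer or medium: F12 medium, 10% FBS; Benchmarks: positive tunicamycin 10 µg/mL, negative DMSO alone.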
XBP1 UPR activ = activators of adaptive XBP1 UPR arm, primary screen, cell-based, CHO-XBP1 luciferase reporter, luminescence, uHTS. IRE1-XBP1 UPR activation; percent of tunicamycin response, DMSO as zero. activation, % at 20 µM. 330,000 compounds, 0.33% hits;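 active = versus positive control, 20 µM dose yields 30% or more activation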;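 also: 100% = tunicamycin at 10 µg/mL and 0% = DMSO only wells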
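Material: CHO cell line with stable XBP1 luciferase reporter; buffer or medium: F12 medium containing 10% fetal bovine serum; compound: single point, 20 µM final compound, 1% DMSO; incubation: 6 h treatment, 37 °C; measured by: glow luminescence from Steady-Glo reagent; evaluation: activation, % of tunicamycin; control set: tunicamycin high, DMSO low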
tim23-1 inh = growth inhibitors of tim23-1 mutant yeast, primary screen, luminescence, uHTS; S. cerevisiae tim23-1 growth, BacTiter-Glo luminescence, 24 h; inhibition, % at 20 µM; 330,000 compounds, 1.3% hits;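 active = growth inhibition of the mutant yeast at or above 50%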;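 also: temperature-sensitive mutant grown at 25 °C; plate controls were DMSO-treated mutant yeast for no effect and medium wells lacking yeast for full effect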
* hit, by the source's call. This is a subset, so the mix of outcomes need not match the whole.

Short keys – A = APJ agonist; B = APJ antagonist; C = CHOP UPR activ; D = XBP1 UPR activ; E = tim23-1 inh
1	C[N+]1(C)[C@@H]2CC[C@H]1CC(OC(=O)C(CO)c1ccccc1)C2 (stereo partly drawn)
  A: 9	B: 7	C: 1.8	D: -8	E: 15
2	O=c1[nH]c2ccccc2n1C1CCN(CCCC(c2ccc(F)cc2)c2ccc(F)cc2)CC1
  A: 3	B: 12	C: -2.7	D: 0	E: 32
3	CC(C)=CCN1CC[C@@]2(C)c3cc(O)ccc3C[C@@H]1C2C (stereo partly drawn)
  A: -3	B: 11	C: -0.8	D: -1	E: 24
4	COc1ccc2c(c1OC)C(=O)O[C@H]2[C@@H]1c2cc3c(cc2CCN1C)OCO3
  A: 3	B: 15	C: 0.4	D: -6	E: 13
5	O=C(O)C(Cl)Cl
  A: -1	B: 8	C: 0.2	D: -7	E: -3
6	NC(=O)CN1CCCC1=O
  A: -4	B: 5	C: 2.0	D: -11	E: -16
7	CON(C)C(=O)Nc1ccc(Cl)cc1
  A: -3	B: -10	C: 0.5	D: -1	E: 12
8	Nc1cc(Cl)cc(C(=O)O)c1Cl
  A: -4	B: -2	C: 0.2	D: -1	E: 7
9	COc1ccc2c(c1)[nH]c1c(C)nccc12
  A: 3	B: 3	C: -2.6	D: -11	E: 7
10	C[C@H]1C[C@@H](C)C(=O)[C@@H]([C@H](O)CC2CC(=O)NC(=O)C2)C1
  A: -5	B: 11	C: -4.8	D: -5	E: 77*

Next part
Short keys – A = APJ agonist; B = APJ antagonist; C = CHOP UPR activ; D = XBP1 UPR activ; E = tim23-1 inh
11	CC(C)Nc1ccc(Nc2ccccc2)cc1
  A: 22	B: -16	C: 6.6	D: -3	E: 10
12	C[N+]1(C)C2CC[C@H]1CC(OC(=O)C(CO)c1ccccc1)C2 (stereo partly drawn)
  A: 5	B: 9	C: 4.1	D: -9	E: 7
13	C[N+]1(C)C2CCC1CC(OC(=O)C(CO)c1ccccc1)C2 (stereo not drawn)
  A: 0	B: 9	C: -0.4	D: -3	E: 3
14	C=CCOC(=O)c1ccccc1N
  A: -4	B: 15	C: 3.7	D: 2	E: -3
15	CCOC(=O)c1cncn1[C@H](C)c1ccccc1
  A: -3	B: 19	C: 0.9	D: -2	E: 11
16	CCOP(=O)(OCC)OCC
  A: -3	B: -5	C: 2.1	D: -1	E: 5
17	CC1=C(C(=O)Nc2ccccc2)SCCO1
  A: -7	B: 15	C: 1.4	D: -3	E: -3
18	C[C@H](O)[C@H]1CC[C@H]2[C@@H]3CCC4=CC(=O)CC[C@]4(C)[C@H]3CC[C@]12C
  A: 11	B: 1	C: 2.0	D: -8	E: 13
19	CC(C)COC(=O)c1ccccc1C(=O)OCC(C)C
  A: -8	B: 21	C: -1.2	D: -4	E: 10
20	C1CCC(NC2CCCCC2)CC1
  A: 0	B: -6	C: 1.0	D: -2	E: 2

Entries by screen from above:
APJ antagonist, entries 13 to 17, in order: 9, 15, 19, -5, 15

Continued.
Short keys – A = APJ agonist; B = APJ antagonist; C = CHOP UPR activ; D = XBP1 UPR activ; E = tim23-1 inh
21	N#CC(C#N)=Cc1ccc(O)c(O)c1
  A: -7	B: 25	C: 3.6	D: -6	E: 12
22	CCCC[N+]1(C)[C@@H]2CC(OC(=O)[C@H](CO)c3ccccc3)C[C@H]1[C@@H]1O[C@@H]12 (stereo partly drawn)
  A: 0	B: 19	C: 1.2	D: -5	E: 1
23	O=[N+]([O-])c1cc(Cl)c(Cl)cc1Cl
  A: -3	B: 2	C: 2.9	D: 0	E: -4
24	C[C@]12CCC(=O)C=C1CC[C@@H]1C2CC[C@]2(C)C(=O)CCC12 (stereo partly drawn)
  A: -2	B: 7	C: -1.1	D: 0	E: 33
25	NN=C(N)N
  A: -2	B: -17	C: -3.3	D: -6	E: 10
26	C[C@]12CCC(=O)C=C1CCC1C2CC[C@@]2(C)C1CC[C@]2(C)O (stereo partly drawn)
  A: -3	B: -3	C: 1.3	D: 0	E: 30
27	Oc1ccc(Cl)c(Cl)c1
  A: -1	B: -18	C: -0.5	D: -1	E: -18

As a working copy, some entries already given.
Short keys – A = APJ agonist; B = APJ antagonist; C = CHOP UPR activ; D = XBP1 UPR activ; E = tim23-1 inh
16	CCOP(=O)(OCC)OCC
  A: -3	B: -5	C: 2.1	D: -1	E: 5
17	CC1=C(C(=O)Nc2ccccc2)SCCO1
  A: -7	B: 15	C: 1.4	D: -3	E: -3
18	C[C@H](O)[C@H]1CC[C@H]2[C@@H]3CCC4=CC(=O)CC[C@]4(C)[C@H]3CC[C@]12C
  A: 11	B: 1	C: 2.0	D: -8	E: 13
19	CC(C)COC(=O)c1ccccc1C(=O)OCC(C)C
  A: -8	B: 21	C: -1.2	D: -4	E: 10
20	C1CCC(NC2CCCCC2)CC1
  A: 0	B: -6	C: 1.0	D: -2	E: 2
21	N#CC(C#N)=Cc1ccc(O)c(O)c1
  A: -7	B: 25	C: 3.6	D: -6	E: 12
22	CCCC[N+]1(C)[C@@H]2CC(OC(=O)[C@H](CO)c3ccccc3)C[C@H]1[C@@H]1O[C@@H]12 (stereo partly drawn)
  A: 0	B: 19	C: 1.2	D: -5	E: 1
23	O=[N+]([O-])c1cc(Cl)c(Cl)cc1Cl
  A: -3	B: 2	C: 2.9	D: 0	E: -4
24	C[C@]12CCC(=O)C=C1CC[C@@H]1C2CC[C@]2(C)C(=O)CCC12 (stereo partly drawn)
  A: -2	B: 7	C: -1.1	D: 0	E: 33
25	NN=C(N)N
  A: -2	B: -17	C: -3.3	D: -6	E: 10
